TRPML1 ag – qHTS for Agonists of the Human Mucolipin Transient Receptor Potential 1 (TRPML1). TRPML1-expressing cells, Ca2+ dye fluorescence, FDSS; host cell line not named in the record; reference of the full effect not given here. activation, % (no concentration beside the values). hit rate 0.12% among 410,000. Mucolipin-1 (Homo sapiens), Q9GZU1; in the data active = activation above about 50%; inconclusive = about 30% to 50%; inactive = below about 30%; note: 0% is about no effect; the text of the record puts the active cut at 80%
Target sequence (Q9GZU1 whole entry, looked up): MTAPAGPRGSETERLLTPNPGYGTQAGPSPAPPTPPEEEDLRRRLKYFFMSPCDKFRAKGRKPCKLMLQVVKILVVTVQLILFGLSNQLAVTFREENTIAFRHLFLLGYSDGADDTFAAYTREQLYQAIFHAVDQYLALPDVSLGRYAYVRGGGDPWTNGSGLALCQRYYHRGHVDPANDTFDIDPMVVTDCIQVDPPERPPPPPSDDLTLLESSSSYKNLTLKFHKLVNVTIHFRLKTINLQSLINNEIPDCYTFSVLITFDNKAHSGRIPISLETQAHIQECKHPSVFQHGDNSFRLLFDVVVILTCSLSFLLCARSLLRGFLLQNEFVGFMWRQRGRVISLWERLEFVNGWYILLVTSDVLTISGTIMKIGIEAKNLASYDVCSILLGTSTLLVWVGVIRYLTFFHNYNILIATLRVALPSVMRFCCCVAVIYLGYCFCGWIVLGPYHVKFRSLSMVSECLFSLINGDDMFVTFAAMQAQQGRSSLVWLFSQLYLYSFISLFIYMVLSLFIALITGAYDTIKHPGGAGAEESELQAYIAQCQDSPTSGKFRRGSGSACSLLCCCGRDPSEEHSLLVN
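Kinetic FDSS Ca2+ read in Tet-induced TRPML1-DL cells (ABD Ca8 dye plus quencher, 45-90 min RT loading): baseline, then compound, then 110 s agonist window; EC80 agonist 54-4 at 4uM final added afterwards for a 110 s antagonist window.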
D2 PAM – Beta-Arrestin HTS for Positive Allosteric Modulators of the Human D2 Dopamine Receptor: Potentiators; D(2) dopamine receptor (Homo sapiens), P14416; DiscoveRx D2 beta-arrestin cells, luminescence, 90 min; 100% = 57 uM dopamine signal; potentiation, % (test concentration not listed); hit rate 0.23% among 360,000; active = potentiation of 50% or more; inconclusive = 30% to 50%; inactive = 30% or less;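 note: compound concentration not given in the record; tested on top of an EC20 dose of dopamine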
Target sequence (P14416 whole entry, looked up): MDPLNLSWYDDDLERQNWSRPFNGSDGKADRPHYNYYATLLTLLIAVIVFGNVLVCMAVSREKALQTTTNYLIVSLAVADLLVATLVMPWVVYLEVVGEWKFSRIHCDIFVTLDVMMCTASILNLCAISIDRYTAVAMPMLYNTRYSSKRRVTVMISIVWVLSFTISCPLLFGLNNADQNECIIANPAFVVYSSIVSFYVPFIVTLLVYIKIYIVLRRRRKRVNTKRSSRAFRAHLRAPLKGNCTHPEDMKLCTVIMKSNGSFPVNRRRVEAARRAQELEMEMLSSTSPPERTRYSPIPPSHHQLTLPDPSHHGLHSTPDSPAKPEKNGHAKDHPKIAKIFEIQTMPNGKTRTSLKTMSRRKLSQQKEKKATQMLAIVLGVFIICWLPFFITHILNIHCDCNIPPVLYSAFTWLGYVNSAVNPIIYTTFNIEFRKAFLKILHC
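PathHunter D2 cells, attached overnight at 37 deg C, received compound in DMSO plus dopamine at EC20 (50 nM final) for 90 min at 37 deg C. Beta-arrestin recruitment was read as luminescence after 1 h with detection reagent at ambient temperature.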
D2 ag – Beta-Arrestin HTS for Positive Allosteric Modulators of the Human D2 Dopamine Receptor: Agonists; activation, % (concentration not given with the values); DiscoveRx PathHunter D2 beta-arrestin, luminescence, 90 min; 100% = 57 uM dopamine signal; hit rate 0.084% among 360,000; AID 624465, 2012; in the data active = activation above about 40%; inconclusive = about 15% to 40%; inactive = below about 15%; note: compound concentration not given in the record; the text of the record calls up to 30% inactive
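Agonist mode: compounds alone added to overnight-plated D2 PathHunter cells for 90 min at 37 C, with 57 uM final dopamine (EC100) defining full response. Beta-arrestin recruitment detected by chemiluminescent reagent, read after 1 h at ambient temperature.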
Six1-Eya2 blk – qHTS Assay for Inhibitors of the Six1/Eya2 Interaction; hit rate 0.56% among 360,000; Homeobox protein SIX1 (Homo sapiens) + Protein phosphatase EYA2 (Homo sapiens), …; AlphaScreen GST-Six1/His-Eya2 binding, biochemical; stronger effect = lower value; control for the full effect not named in the record; activity change, % (no concentration beside the values); in the data active = activity change below about -65%; inconclusive = about -30% to -65%; inactive = above about -30%; note: % is set by controls: 0 for no effect and ±100 for the full control effect; compound concentration not given in the record
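Six1/Eya2 binding was read as AlphaScreen signal after compounds were pinned into GST-Six1 plus His-tagged Eya2 (5X stock 250/500 nM) in pH 8.0 Tris/NaCl/TCEP buffer, beads added, then incubated 1 h, 37 C, dark.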
PINK1 expr mod – A Quantitative High throughput Screen to Identify Chemical Modulators of PINK1 Expression. hit rate 0.2% among 410,000. PINK1 immunofluorescence, high-content cytometry, 24 h. Potency, µM (doses to about 76.6 µM), for the others: at the top dose activation (PINK1 increase), usual class: activators. AID 624263, 2012; active = well fitted activation curve with a large enough effect; inconclusive = small, poorly fitted or top-dose-only effect; inactive = flat fitted curve, though single readings scatter; cell line not stated here;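 note: potency is the fitted concentration of half-maximal effect; % of control where 0% means no effect; nearly all actives have a fitted effect of over 65% in size; a mitochondrial uncoupler was the plate control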
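Measures PINK1 amount and localization on or inside mitochondria by immunofluorescence. Stable cells get compounds at 5 concentrations for 24 hours before fixation and staining; CCCP controls included.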
TRPML1 inh – qHTS for Inhibitors of the Human Mucolipin Transient Receptor Potential 1 (TRPML1) | hit rate 0.02% among 390,000 | activity change, negative = inhibition, % (test concentration not listed) | AID 624415, 2012 | Mucolipin-1 (Homo sapiens), Q9GZU1 | TRPML1-inducible cells, Ca2+ dye fluorescence, FDSS; stronger effect = lower value; inhibition of EC80 agonist-evoked calcium signal; in the data active means activity change below about -50%; inconclusive means about -30% to -50%; inactive means above about -30%;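 note: stimulus is agonist 54-4 at its EC80 concentration; % is set by controls: 0 for no effect and ±100 for the full control effect; compound concentration not given in the record; the text of the record puts the active cut at -80%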
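Calcium fluorescence in TRPML1-DL cells induced overnight with Tet: a 110 s read after compound pin addition, then a 110 s antagonist read after challenge with 54-4 at 4 uM final (EC80).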
* hit, by the source's call; ? = inconclusive; · = not tested or not shown; [ ] = remark or other dose. The order is random; any-hit rate near 1%.

SMILES | TRPML1 ag | D2 PAM | D2 ag | Six1-Eya2 blk | PINK1 expr mod | TRPML1 inh
CC[N+](C)(C)CC/C=C1/c2ccccc2Sc2ccc(Cl)cc21 | 0.5 | -19 | -5.4 | 4 | 0.4% | -7
COc1ccc(-c2ccc(CN3C(C(C)C)C(=O)N(Cc4cn(Cc5ccco5)nn4)CCS3(=O)=O)cc2)cn1 (stereo not given) | 1.9 | 3 | -4.3 | -8 | 0.6% | 8
CCSc1oc(-c2ccco2)nc1S(=O)(=O)c1ccc(Br)cc1 | 1.4 | · | · | · | -1.5% | 4
Cc1ccc(S(=O)(=O)N(C)C)cc1NC(=S)Nc1cccc2ccccc12 | 2.1 | -39 | -1.0 | -6 | -0.9% | -7
Cc1ccc(C(=O)Nc2ccc3oc(-c4ccc(C(C)(C)C)cc4)nc3c2)cc1 | -0.2 | · | · | · | 1.9% | 5
O=C(c1cc2ccccc2o1)N1CCN(S(=O)(=O)c2ccccc2)CC1 | 3.9 | -12 | -2.6 | 0 | 3.1% | 3
CCCCCn1c(CN2CCN(CCO)CC2)nc2c1c(=O)n(C)c(=O)n2C | 0.0 | -9 | -3.0 | -9 | 3.8% | 2
O=C(CN(c1ccc(Cl)c(C(F)(F)F)c1)S(=O)(=O)c1ccccc1)N/N=C/c1cccc2c1OCCO2 | -0.9 | 21 | -2.7 | 0 | 6.6% | 10
CCN(C(C)=O)c1nc(CCl)cs1 | 0.5 | -1 | -1.4 | 3 | 0.1% | -3
COc1cc(/C=C2/SC(=S)N(CC(=O)NC(C)(C)C)C2=O)cc(OC)c1OC | 0.5 | 2 | -1.4 | -8 | 12% | -10
Cc1cc(C(=O)NNC(=S)NCc2ccccc2)cs1 | -0.6 | -12 | -4.5 | 18 | -0.7% | 47
CN1CCN(c2nc3ccccn3c(=O)c2C=C(C#N)C#N)CC1 | -0.7 | -13 | -4.5 | -5 | -0.9% | 3
CCC(=O)Nc1ccc2c(c1)nc(CCN1CCCCC1)n2C | · | -17 | -7.1 | -23 | 0.9% | ·
CCc1nnc(NC(=O)CSc2nnc(-c3ccccc3O)o2)s1 | 0.7 | 6 | 2.5 | 0 | 1.2% | -11
CC(C)(C)c1ccc(-c2cc(C(=O)NNC(=O)Nc3ccccc3)c3ccccc3n2)cc1 | 1.3 | 10 | 3.1 | -4 | -0.4% | -17
O=C(NCc1ccco1)c1nc2ncccn2n1 | 1.0 | -14 | -4.3 | -2 | -0.4% | -9
COc1ccc(Cc2nnc(SCC(=O)Nc3ccc(C)c(C)c3)o2)cc1OC | -0.1 | -9 | -3.8 | -6 | 1.1% | 5
CC(C)(CNC(=O)Cc1ccc(Br)cc1)N1CCOCC1 | 0.7 | 1 | -0.6 | 8 | -0.6% | 0
COc1ccc(NC(=O)c2ccccc2)cc1 | -0.2 | -3 | -0.2 | 1 | 0.4% | 10
CC(C)(C)C(=O)COC(=O)c1ccc(N)c([N+](=O)[O-])c1 | -0.5 | -4 | 1.2 | 8 | 2.1% | 4
COc1ccccc1N1CCN(C(=O)c2cc3c(=O)n(C)c4ccccc4c3n2C)CC1 | 2.1 | -3 | -5.7 | 0 | 5.7% | 0
O=C(O)c1ccc(/C=N/Nc2cccc(C(F)(F)F)c2)cc1 | -0.5 | 20 | 4.0 | -6 | 2.5% | 10
O=C(CC(=O)Nc1ccccc1C(F)(F)F)Nc1ccccc1C(F)(F)F | 0.8 | -8 | -0.5 | 23 | 0.3% | 4
CC(C)C(NC(=O)c1cccs1)C(=O)NC1=NCCS1 (stereo not given) | -0.3 | -4 | 1.1 | 1 | 4.5%[38.3 µM] | -14

2 entries drawn at random from the list so far, as already listed:
SMILES | TRPML1 ag | D2 PAM | D2 ag | Six1-Eya2 blk | PINK1 expr mod | TRPML1 inh
CCc1nnc(NC(=O)CSc2nnc(-c3ccccc3O)o2)s1 | 0.7 | 6 | 2.5 | 0 | 1.2% | -11
O=C(NCc1ccco1)c1nc2ncccn2n1 | 1.0 | -14 | -4.3 | -2 | -0.4% | -9

The main list resumes; the 2 compounds before the break are reprinted first.
SMILES | TRPML1 ag | D2 PAM | D2 ag | Six1-Eya2 blk | PINK1 expr mod | TRPML1 inh
O=C(CC(=O)Nc1ccccc1C(F)(F)F)Nc1ccccc1C(F)(F)F | 0.8 | -8 | -0.5 | 23 | 0.3% | 4
CC(C)C(NC(=O)c1cccs1)C(=O)NC1=NCCS1 (stereo not given) | -0.3 | -4 | 1.1 | 1 | 4.5%[38.3 µM] | -14
CCOC(=O)c1ccc(NC(=O)Cn2nc(SC)c(S(=O)(=O)c3ccc(Cl)cc3)c2N)cc1 | 0.4 | · | · | · | 18µM* | 11
Cc1ccc(-n2nc3c(c2NC(=O)c2c(F)cccc2Cl)CS(=O)(=O)C3)cc1C | 0.6 | 6 | -4.9 | 0 | -0.8% | -12
O=S(=O)(Nc1c(Br)cc(Br)c2cccnc12)C1CC1 | 1.3 | · | · | · | -0.7% | -10
O=C(O)C1=C[C@@H](c2ccc3c(c2)OCO3)C[C@@H](OCCCCO)O1 | -1.0 | -65 | -1.5 | 28 | 0.4% | 7
CCN(CC)N=Nc1ccc(C(=O)O)cc1 | 0.7 | -1 | -2.0 | 26 | 2.4% | -8
COc1ccc(S(=O)(=O)N2CCC(C(=O)OCC(=O)c3ccccc3)CC2)cc1[N+](=O)[O-] | 1.0 | -8 | -7.1 | 7 | 10% | -21
COc1ccccc1OCCCn1c(-c2ccc(Cl)cc2)nc2ccccc2c1=O | -0.2 | · | · | · | -0.9% | 36
Cc1cc(N2CCOCC2)c2c(N)c(Br)cc(C)c2n1 | 0.9 | 1 | -4.5 | -9 | -2.4% | 6
CC(=O)NNS(=O)(=O)c1scc(S(=O)(=O)c2ccc(Cl)cc2)c1C | 0.9 | -6 | 5.1 | -4 | 0.8% | -24
CCOc1ccc(C(=O)Nc2nnc(C(C)C)s2)cc1OCC | 1.3 | -10 | -2.6 | -2 | 1.1% | 14
Cc1ccc(/C=N\NC(=O)c2ccc(Cn3cc(Br)c([N+](=O)[O-])n3)o2)o1 | 2.8 | -7 | -2.9 | -10 | 3.0% | 7
CC(C)(C)c1ccc(Cn2nnc3c(=O)[nH]c(C4CCN(C(=O)Cc5cccs5)CC4)nc32)cc1 | 0.2 | -4 | -3.3 | -7 | -1.9%[38.3 µM] | -13
COC(=O)c1ccsc1NC(=O)c1cccc(OC)c1 | -0.1 | 3 | 0.5 | 26 | 3.3% | -9
COc1ccc(-c2ccc3c(N)c(C(=O)NCc4ccc(C)cc4)sc3n2)cc1 | -0.7 | · | · | · | 3.4% | 2
CCOC(=O)C1=C(COC(=O)CNC(=O)c2ccc(C)cc2)NC(=O)NC1C (stereo not given) | -0.6 | 1 | -0.3 | -4 | -0.4% | -11
Cc1cccc(NC(=O)/C(C#N)=C/c2ccco2)c1 | -0.9 | · | · | · | 7.7% | 30
Cc1c(Cl)cccc1NC(=O)N1CCCN(c2nc(-c3ccccc3)ns2)CC1 | 0.5 | -18 | -3.9 | -7 | 3.6% | 22
C/C(=N/NC(=O)c1ccc(C)nc1)c1ccc2c(c1)CCCC2 | 2.4 | -10 | -4.4 | 9 | 3.6% | 7
CCC1Oc2ccc(C)cc2N(CC(=O)N2CCCC2)C1=O (stereo not given) | · | 0 | -3.3 | 3 | -0.4% | ·
CCCS(=O)(=O)c1nc(S(=O)(=O)c2ccc(C)cc2)c(NCCCN2CCCC2=O)s1 | -0.9 | -10 | -3.4 | 7 | -0.4% | 7
CC1(C(=O)O)COC(c2ccc([N+](=O)[O-])cc2)OC1 (stereo not given) | 0.6 | -11 | 1.6 | 1 | 0.4%[38.3 µM] | -3
CCCC(=O)N1CCN(c2ccc(NC(=O)c3cc4ccccc4o3)cc2Cl)CC1 | 3.2 | ? | ? | -14 | 4.8% | 25
CC1CC(C)CN(C(=O)COC(=O)COc2ccccc2C#N)C1 (stereo not given) | 0.4 | -2 | -1.4 | -1 | 1.2% | 1
CCOc1cc(C#N)c(NC(=O)CSc2nnnn2-c2ccc(OC)cc2)cc1OCC | 1.2 | 4 | -1.9 | -2 | 4.5% | -5
NC(=O)CSc1nnnn1-c1ccc2c(c1)OCCO2 | 0.6 | -6 | -0.7 | 10 | -2.0% | 3
O=C(CCc1nnc2ccc(N3CCCCC3)nn12)NCc1ccco1 | -1.0 | -1 | -0.1 | -2 | -1.1% | 14
COCCn1c(SCC(=O)Nc2ccc(S(=O)(=O)N(C)C)cc2)nc2ccccc21 | 1.0 | 6 | -2.7 | -5 | 1.5% | 41
Cc1ccc2c(c1)[C@H]1[C@H](CO2)[C@H](c2ccccc2)[C@]2(C)C(=O)Nc3ccccc3C(=O)N12 | 0.2 | -7 | 8.4 | -20 | 4.1% | 12
CNC(=S)N/N=C/c1cn(CCOc2cccc(OC)c2)c2ccccc12 | -2.0 | -9 | -3.3 | ? | 1.2% | -3
O/N=C1\CCCc2oc3c(c21)CCCC3 | -0.5 | -3 | -2.0 | -8 | -1.3%[38.3 µM] | 8
CCOC(=O)c1[nH]nc2c1C(=O)N(CC)C2=O | -0.3 | -3 | -3.2 | 3 | -0.6% | -18
Cc1cccc(C)c1-n1nnnc1C1c2ccccc2C(=O)N1CCc1ccccc1F (stereo not given) | -0.7 | · | · | 7 | -1.0% | ·
Cc1cc(C(=O)NC2CC(C)(C)Cc3c2cnn3-c2cccc(F)c2)nn1C (stereo not given) | 0.7 | -14 | 7.5 | -11 | 3.5% | 2
CC(CCc1ccccc1)NC(=O)CCC1CCCC1 (stereo not given) | 0.8 | -12 | -5.2 | -1 | -1.3% | 3
Cc1cc(C)n(C2CC(=O)N(c3ccc(C)c(Cl)c3)C2=O)n1 (stereo not given) | 4.7 | -7 | -3.3 | 0 | 0.4% | 15
CCc1ccc(OCC(=O)N(Cc2ccc(C)cc2)Cc2ccco2)cc1 | 2.9 | · | · | · | 0.1% | 9
CCOC(=O)c1sc(-n2[nH]c(C)cc2=O)nc1C | -0.3 | -10 | -1.7 | -5 | 2.3% | -12
O=C(c1ccc2[nH]c3c(c2c1)CCCC3)N1CCN(c2ccc(F)cc2)CC1 | 1.0 | -10 | -0.2 | -24 | -1.2% | -4
CCCCCN(C(=O)NC(=O)Nc1ccccc1OC)S(C)(=O)=O | 0.4 | -2 | -1.3 | -1 | ? | 1
CCOc1cc(C(=S)N2CCCCC2)ccc1OS(=O)(=O)c1ccc(Cl)cc1 | 0.2 | -10 | -3.9 | -16 | 6.2%[38.3 µM] | 89
O=C(CN1CCCCCCC1)Nc1cccc(Cl)c1Cl | 0.4 | -7 | -1.1 | 4 | 10% | 19
CC1(C)CC(=O)C(C(C2=C(O)CC(C)(C)CC2=O)c2ccc([N+](=O)[O-])cc2)C(=O)C1 (stereo not given) | 0.0 | -8 | -0.4 | -7 | -1.8% | 11
